# From PubChem
# PINK1 expr mod: A Quantitative High throughput Screen to Identify Chemical Modulators of PINK1 Expression; PINK1 immunofluorescence, high-content cytometry, 24 h; Potency, µM (top dose mostly 76.6 µM), for the others: at the highest dose activation (PINK1 increase), actives largely listed as activators; actives 0.2% (n = 410,000); AID 624263, 2012; active = well fitted activation curve with a large enough effect; inconclusive = small, poorly fitted or top-dose-only effect; inactive = flat fitted curve, though single readings scatter; cell line not stated here;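 note: potency is the fitted concentration of half-maximal effect; % of control where 0% means no effect; nearly all actives have a fitted effect of over 65% in size; a mitochondrial uncoupler was the plate control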
#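 Cells are seeded, rested 12 hours, then given compound at five concentrations or DMSO for 24 hours. After fixation, blocking and antibody staining, PINK1 amount and mitochondrial localization are scored; CCCP serves as control.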
# ClpP mod: qHTS Assay for Activators of ClpP; ATP-dependent Clp protease proteolytic subunit (Bacillus subtilis (strain 168)), P80244; purified B. subtilis ClpP, FRET peptide cleavage, 20 min; actives 1.9% (n = 340,000); Potency, µM (titrated, usually from 57.5 µM), inactives show at the top dose activity change, negative = active; AID 651965, 2013; active = well fitted falling curve with a large enough effect; inconclusive = small, poorly fitted or top-dose-only effect; inactive = no such curve, though single readings can be large or run the other way; note: potency is the fitted concentration of half-maximal effect; the source files actives as falling curves though it sought activators and does not explain the sign; nearly all actives have a fitted effect of over 65% in size; many hits overshoot -100%
# Target sequence (P80244 whole entry, looked up): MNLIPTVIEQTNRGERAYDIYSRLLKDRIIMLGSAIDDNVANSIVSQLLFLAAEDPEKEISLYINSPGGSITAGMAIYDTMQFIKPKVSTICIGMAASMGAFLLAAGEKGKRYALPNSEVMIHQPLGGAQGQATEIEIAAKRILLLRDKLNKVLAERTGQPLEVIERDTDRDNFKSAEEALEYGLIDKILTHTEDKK
#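 FRET quenching reversal measured ClpP activation: 10 microg/mL B. subtilis ClpP at pH 8 with the FRET-FV decapeptide, read at 430 nm after 320 nm excitation. The 20-min minus 0-min signal was scaled between DMSO/no-enzyme wells and ADEP (5.8 microM final).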
# TRPML1 ag: qHTS for Agonists of the Human Mucolipin Transient Receptor Potential 1 (TRPML1). Mucolipin-1 (Homo sapiens), Q9GZU1. TRPML1-expressing cells, Ca2+ dye fluorescence, FDSS; host cell line not named in the record; reference of the full effect not given here. activation, % (test concentration not listed). actives 0.12% (n = 410,000). AID 624414, 2012; in the data active = activation above about 50%; inconclusive = about 30% to 50%; inactive = below about 30%; note: 0% is about no effect; the text of the record puts the active cut at 80%
#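 Kinetic FDSS Ca2+ read in Tet-induced TRPML1-DL cells (ABD Ca8 dye plus quencher, 45-90 min RT loading): baseline, then compound, then 110 s agonist window; EC80 agonist 54-4 at 4uM final added afterwards for a 110 s antagonist window.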
# Sfp PPTase inh: qHTS Assay for Inhibitors of Bacillus subtilis Sfp phosphopantetheinyl transferase (PPTase); Biochemical Sfp PPTase activity, qHTS; Potency, µM, for inactives: max response, negative = inhibition, actives largely listed as inhibitors; actives 3.5% (n = 310,000); AID 1490, 2009; active = well fitted inhibition curve with a large enough effect; inconclusive = small, poorly fitted or top-dose-only effect, or another doubt; inactive = no such curve, though single readings can be large or run the other way;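 note: the enzyme is Sfp with the accession as filed and its product quenches rhodamine fluorescence; potency is the fitted concentration of half-maximal effect; 0% = enzyme reaction without inhibitor and -100% = no enzyme wells; top concentration of the series not given in the record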
#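 Reaction rates are the 30-min fluorescence difference (ex 525, em 598 nm) in wells containing 15 nM Sfp, 5 uM rhodamine-CoA and 12.5 uM BHQ-2-YbbR at pH 7.6 with 10 mM MgCl2.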
# TRPML1 inh: qHTS for Inhibitors of the Human Mucolipin Transient Receptor Potential 1 (TRPML1); actives 0.02% (n = 390,000); TRPML1-inducible cells, Ca2+ dye fluorescence, FDSS; hits give low values; inhibition of EC80 agonist-evoked calcium signal; activity change, negative = inhibition, % (concentration not given with the values); in the data active means activity change below about -50%; inconclusive means about -30% to -50%; inactive means above about -30%;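 note: stimulus is agonist 54-4 at its EC80 concentration; % is set by controls: 0 for no effect and ±100 for the full control effect; compound concentration not given in the record; the text of the record puts the active cut at -80%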
#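 Calcium fluorescence in TRPML1-DL cells induced overnight with Tet: a 110 s read after compound pin addition, then a 110 s antagonist read after challenge with 54-4 at 4 uM final (EC80).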
# TRPV1 PAM: HTS Assay for Compounds that Act as Potentiators of the Vanilloid Receptor 1; Transient receptor potential cation channel subfamily V member 1 (Homo sapiens), Q8NER1; TRPV1-expressing cells, Fluo-8 calcium influx, capsaicin EC20 potentiation; host cell line not named in the record; control for the full effect not named in the record; AID 540277, 2011; potentiation, % at 8.33 µM; actives 0.02% (n = 320,000); active means potentiation above 80%; inconclusive means 30% to 80%; inactive means below 30%; note: 0% is about no effect
# Target sequence (Q8NER1 whole entry, looked up): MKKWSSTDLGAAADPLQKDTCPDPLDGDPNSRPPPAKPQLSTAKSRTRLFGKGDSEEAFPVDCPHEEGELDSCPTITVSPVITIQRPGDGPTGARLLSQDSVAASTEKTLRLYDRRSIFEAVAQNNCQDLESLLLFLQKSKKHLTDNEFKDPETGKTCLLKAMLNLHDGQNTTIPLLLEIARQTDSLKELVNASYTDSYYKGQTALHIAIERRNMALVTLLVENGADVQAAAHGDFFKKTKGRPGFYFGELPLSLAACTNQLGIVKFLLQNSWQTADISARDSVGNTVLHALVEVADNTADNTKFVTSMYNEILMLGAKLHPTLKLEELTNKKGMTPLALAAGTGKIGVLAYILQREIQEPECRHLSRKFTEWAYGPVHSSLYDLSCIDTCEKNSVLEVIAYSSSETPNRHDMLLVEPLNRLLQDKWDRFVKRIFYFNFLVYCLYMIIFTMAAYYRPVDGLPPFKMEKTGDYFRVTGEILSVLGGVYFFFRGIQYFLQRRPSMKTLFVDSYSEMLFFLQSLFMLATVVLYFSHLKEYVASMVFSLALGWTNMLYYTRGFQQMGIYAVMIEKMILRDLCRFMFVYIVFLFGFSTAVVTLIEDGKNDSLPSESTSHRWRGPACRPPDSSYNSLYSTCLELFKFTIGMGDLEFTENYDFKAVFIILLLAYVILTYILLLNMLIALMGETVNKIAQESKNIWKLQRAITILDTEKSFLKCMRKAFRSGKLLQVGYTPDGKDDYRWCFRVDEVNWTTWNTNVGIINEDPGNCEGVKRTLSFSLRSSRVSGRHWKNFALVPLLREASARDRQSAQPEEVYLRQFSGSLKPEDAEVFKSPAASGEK
#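 Fluo-8 calcium influx in TRPV1-expressing cells, kinetic read (ex 480/em 520 nm). Compound added and read 3 min for agonist activity, followed by capsaicin at EC20 final and 2 min further read for enhancement.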
# Menin-MLL FL inh: qHTS Assay for Inhibitors Targeting the Menin-MLL Interaction in MLL Related Leukemias: Competition With Fluorescein Labeled MLL-derived Peptide; Fluorescence polarization, fluorescein-MLL peptide displacement from menin; FP activity change, % at 61.4 µM; 290,000 tested, under 10 active; AID 1766, 2009; inconclusive = falling polarisation curve, or a change in total fluorescence; inactive = total fluorescence flat and polarisation flat or rising; no compound was filed as active; the % refers to the polarisation; negative = inhibition;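 note: % of control where 0% means no effect; inhibitors lower the polarisation; unlabelled MLL peptide was the positive control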
# Numbers without * were called inactive; ? = inconclusive; · = not tested or not shown; & = joins results of further samples; [ ] = remark or other dose.
SMILES,PINK1 expr mod,ClpP mod,TRPML1 ag,Sfp PPTase inh,TRPML1 inh,TRPV1 PAM,Menin-MLL FL inh
Cc1ccc(C(=O)CSc2nc(-c3ccccc3)ccc2C#N)cc1,6.7%,·,29.4,-17.3%,14.8,13.7,?
CN(C)c1ccc(C(=O)OCC(=O)N2CCCCCC2)cc1,1.8%,-2.6%,-0.3,8.5%,17.7,-5.2,-6.4
Cc1cc(C)c(Cn2ncn(-c3ccc(Br)cc3)c2=O)c(C)c1,2.9%,2.2%,-0.4,-28.6%,-0.3,-11.0,-0.5
Cc1ccc(C(=O)C(C)OC(=O)c2ccccc2[N+](=O)[O-])cc1 (configuration not stated),4.5%,-6.8%,3.3,-9.4%,34.9,-3.2,2.5
NC(CC(=O)O)c1cccc(OCc2ccccc2)c1 (configuration not stated),2.3%,-1.7%,-0.4,-2.0%,7.3,19.6,0.8
Cc1cccc(OCCOc2ccc(/C=N/NC(=O)Cc3nnc(N)s3)cc2)c1,·,·,·,10.6%,·,0.7,0.3
CCOC(=O)c1cnc(-c2ccccc2)nc1N(C)C,2.1%[38.3 µM],-0.3%,0.7,-26.9%,-1.0,-19.4,2.1
O=C1CCN(Cc2ccccc2)CCN1CCOc1ccccc1,1.2%,-2.7%&2.5%,-0.2&-0.3,3.3%,-6.6,7.3,3.9
CSc1ccc(CNC(=O)C2Cc3cc(S(=O)(=O)N4CCCC4)ccc3N2C(C)=O)cc1 (configuration not stated),1.5%,-0.6%,-0.5,10.5%,7.5,0.6,·
Cc1cc(NC(=O)CCC(=O)N(c2ccccc2)C(C(=O)NCC2CCCO2)c2cccnc2)no1 (configuration not stated),-0.4%,-2.0%,0.7,11.5%,-5.2,-1.2,4.9
O=C(c1ccccc1)c1cc2ccccc2oc1=O,0.6%,-1.4%,1.5,7.9%,-7.4,3.4,17.6
CCc1ccc2[nH]c(=O)c(CN(CCCO)C(=O)NCc3ccccc3)cc2c1,1.0%,?,-1.0,9.0%,-12.6,11.5,-0.4
CC1(OC(=O)CCc2ccccc2)C(=O)C=C2C=C(c3ccc(C#N)cc3)N(C(CO)CO)C=C2C1=O (configuration not stated),1.3%,-4.4%,0.3,-13.6%&4.4%,-3.4,-8.7,-7.0[11.7 µM]
CC1CCC2(CC1)NC(=O)N(CC(=O)NCCc1ccc(F)cc1)C2=O (configuration not stated),1.1%,0.3%,1.7,·,-19.8,-2.6,·
CCN1CCN(CC(=O)N/N=C/c2cc(Br)cs2)CC1,3.2%,-7.9%,-0.8,79.4µM*,8.7,?,-4.6
COc1ccc(CCNC(=O)CSc2nc3c(c(=O)n(C)c(=O)n3C)n2C)cc1OC,0.1%,-1.1%,-0.6,3.2%,14.4,-0.6,3.5
CC(NS(=O)(=O)c1ccc(OCC(=O)N2CCCC2)cc1)c1ccccc1 (configuration not stated),4.0%,·,0.1,21.0%,-4.5,?,-1.0
CC1(c2nnnn2Cc2ccccc2)CCC(=O)N1CCCn1ccnc1 (configuration not stated),-0.4%,-3.6%,-0.5,·,·,·,·
COc1cccc(C(=O)NCC(c2ccc(N(C)C)cc2)N2CCCC2)c1OC (configuration not stated),-0.6%,-0.7%,-0.7,·,-7.6,·,·
COc1cc(/C=N/NC(=O)COc2ccc(-n3cnnn3)cc2)ccc1OCC(N)=O,2.5%,·,-1.1,14.7%,-2.8,-7.4,32.4[activator]
Fc1cccc(Cc2c(-c3ccccc3)nc3c(Cl)cc(C(F)(F)F)cn23)c1,7.8%,-14.7%,-0.2,·,·,·,·
CCc1cc2c(=O)n(-c3ccccc3)c(SCC(N)=O)nc2s1,2.2%,-1.4%,0.8,4.4%,0.6,-13.5,-3.9
CC1(C)Oc2ccc(C(=O)N/N=C/c3ccc(O)cc3)cc2NC1=O,-0.3%,·,0.5,13.9%,-8.5,-2.6,·
COc1ccc(C(=O)COC(=O)c2cccnc2SC)cc1,4.0%,0.2%,-1.2,-8.8%,-15.7,-6.9,5.9
Cc1cc(F)ccc1NC(=O)C1CCCO1 (configuration not stated),0.4%,·,0.1,17.6%,-3.3,-1.3,-2.6

# Later entries.
SMILES,PINK1 expr mod,ClpP mod,TRPML1 ag,Sfp PPTase inh,TRPML1 inh,TRPV1 PAM,Menin-MLL FL inh
N#Cc1cc(NC2CCCC2)c([N+](=O)[O-])cc1C#N,2.5%,-3.1%,-0.6,-3.9%,-7.1,20.7,?
CC1CCCCC1NC(=O)COC(=O)c1c2c(nc3ccccc13)/C(=C\c1ccco1)CC2 (configuration not stated),3.3%,·,0.0,·,0.3,·,·
CCOC(=O)c1c(C)oc2nc(C)nc(NCc3ccc(Cl)cc3)c12,2.4%,1.1%,0.1,·,5.7,·,·
CCOC(=O)N1CCN(Cc2nc3c(c(=O)n(C)c(=O)n3C)n2Cc2cccc(C)c2)CC1,-2.1%,-2.1%,-0.5,-12.5%,-2.1,-16.4,-0.7
CNc1nc(Oc2cccc(NC(C)=O)c2)c2sccc2n1,2.1%,4.9%,-0.3,·,·,·,·
Cc1cccc(NS(=O)(=O)c2cccc(C(=O)NNC(=O)c3ccccc3O)c2)c1,-0.5%,·,0.5,·,45.9,-12.6,·
CCOC(=O)CCCc1ccc(/C(C)=N/NC(=S)NC)cc1,0.0%,0.9%,1.1,4.4%,?,-2.2,-5.1
CN(C1CCCCC1)S(=O)(=O)c1ccc(-n2cnnn2)cc1,·,-3.5%,-0.2,6.5%,6.2,-4.4,-0.5
FCCCOc1ccc(-c2ccnc(-c3ccccc3)n2)cc1,5.9%,?,1.8,?,-2.0,0.0,2.5
C=CCOc1nc(N(C)C)nc(N(C)C)n1,-0.4%,0.3%,0.6,6.2%,3.8,-6.2,5.1
C/C(=N\NC(=O)CN(c1ccccc1)S(C)(=O)=O)c1ccccc1O,-1.4%,·,0.0,-0.9%,21.6,0.1,-5.5
COc1c(C(=O)NNC(=O)c2ccccc2Cl)csc1Br,-0.6%,-1.6%,-0.4,25.0%,-3.9,-11.1,-0.5
Cc1ccc(CN2CCN(Cc3ccc(O)cc3)CC2CCO)o1 (configuration not stated),-0.9%,·,-0.2,-15.6%,-10.5,1.0,1.9
COC(=O)c1cc(S(=O)(=O)NCC2CCN(Cc3ccc(C)cc3)CC2)cn1C,1.1%&2.9%,-2.2%&1.9%,0.3&-0.8,7.8%,22.8&-11.9,-8.8,·
O=C1N[C@@H](Cc2ccccc2)C(=O)N2[C@@H]1C[C@@]1(Br)c3ccccc3N(S(=O)(=O)c3ccccc3)[C@@H]21,0.8%,1.2%,-0.1,·,10.5,·,·
O=C(CCS(=O)(=O)c1ccccc1)N1CCN(c2ccc(F)cc2)CC1,2.0%,-1.8%,-0.5,6.4%,0.9,-7.9,·
COCc1cc(/C=N\NC(=O)Cc2ccc(Cl)cc2)ccc1OC,2.4%,-15.9%,-0.4,12.0%,-21.5,-5.4,3.1
CCn1c(SCC(=O)N2CCCCCC2)nc2c(c1=O)SCC2,0.9%,-3.8%,4.1,13.3%,23.6,-10.6,·
COc1cccc(/C=N/N2CCN(c3ccccc3OC)CC2)c1,2.2%[38.3 µM],-0.5%,-0.3,0.1%,-2.5,6.5,1.7
CN1C(=O)[C@H]2[C@@H](/C=C/c3ccccc3)N3C(=O)CN(Cc4ccccn4)C(=O)[C@@]3(Cc3ccccc3)[C@H]2C1=O,-0.5%,-2.8%,-0.4,·,19.2,·,·
O=C(N/N=C1\CCCc2ccccc21)c1ccccc1Cl,0.8%,·,0.3,2.9%,22.7,-10.9,-9.1
CCOC(=O)[C@@H]1[C@H]2COc3cc(OC)ccc3[C@H]2N2C(=O)N(c3ccc(Br)cc3)C(=O)[C@]12C,0.9%,-1.1%,0.6,·,-8.4,·,·
CSc1cc(-c2ccncc2)nc(-c2ccc(Cl)cc2)c1,7.2%,0.6%,2.9,4.6%,21.3,?,2.5
CCCCN(C(=O)CNC(=O)c1ccco1)C(C(=O)NC1CCCCC1)c1ccc(OC)cc1OC (configuration not stated),-0.8%,0.0%,0.3,11.6%,-3.6,-6.4,2.0
Cc1ccc(C(=O)Nc2nc(-c3cc(Cl)sc3Cl)cs2)cc1,7.5%,254.2%,0.2,-9.8%,-7.6,15.8,-0.1

# Next records follow:
SMILES,PINK1 expr mod,ClpP mod,TRPML1 ag,Sfp PPTase inh,TRPML1 inh,TRPV1 PAM,Menin-MLL FL inh
Cc1oc(-c2ccc(Cl)cc2)cc1C(=O)NC1CCN(Cc2ccccc2)CC1,9.3%,·,0.4,-5.0%,22.0,·,2.8
CC(C)N(Cc1ccccc1)S(=O)(=O)c1cccs1,-0.1%,0.6%,3.5,10.9%,36.8,7.8,3.0
Cc1ccc(C(=O)O/N=C/c2ccc(N(C)C)cc2)cc1,1.8%,-0.2%,-0.5,16.8%,11.2,-0.5,-2.4
O=C(CN1C(=O)CCSc2ccc(S(=O)(=O)N3CCOCC3)cc21)Nc1ccccc1Cl,0.0%,-6.3%,-0.4,18.7%,4.8,-3.0,3.8
Cc1ccc(S(=O)(=O)/N=C(/Nc2ccc(O)c(C(=O)O)c2)c2ccccc2)cc1,-1.0%,-1.6%,-0.6,·,8.2,?,·
C/C(=N\NC(=O)CC#N)c1ccc(Oc2ccccc2)cc1,4.3%,-1.8%,1.7,6.5%,-16.4,1.0,2.4
O=C(Nc1ccc2nn(-c3ccc(Cl)cc3)nc2c1)c1cc2ccccc2o1,2.2%,-6.3%,1.3,·,5.7,·,·
O=C(c1cc2ccccc2o1)N1CC=C(c2ccccc2)CC1,1.3%,·,1.1,-19.9%,2.2,-10.5,3.9
CC(C)c1ccccc1NC(=O)C1CCCN(C(=O)c2ccc(Cl)cc2)C1 (configuration not stated),-5.1%,1.6%,1.3,·,28.1,-1.0,·
C/C=C(\C)C(=O)NCCN1C2=NC[C@@H](Cc3ccccc3)N2C[C@H]1Cc1ccc(O)cc1,0.7%,-1.7%,-0.6,14.3%,?,-1.5,-2.5
COc1cc(NC(=O)C2CCN(S(=O)(=O)c3ccc(N4CCCC4=O)cc3)CC2)cc(OC)c1,-1.8%,-2.0%,0.9,14.9%,-2.8,9.9,·

# This is a random part of the collection (roughly 4.4% active in at least one column).
